Assay outcomes (PubChem)
CSC inhib = blocks cancer stem cells. inhibition, % at 7.5 µM. cancer stem cell-like cells viability, luminescence. 1.1% of 300,000 active;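 active = mean at 75% or more and at least half the replicates too; tested in HMLE shEcad cells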;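 also: 0% = median of negative and 100% = median of positive control wells; the first replicate is given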
Env fusion inh = blocks HIV Env-driven cell-cell fusion; inhibition, % at 12.3 µM; 1.1% of 360,000 active; HeLa-JRFL Env/CEM21 cell fusion, luciferase;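 active = mean replicate inhibition score of at least 50 and every replicate individually at or above 50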;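 also: 0% = plate neutral controls and 100% = maraviroc near 300 nM; one replicate is shown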
Yeast UUG start = modulators of start codon recognition fidelity in yeast. activity score, % at 18.7 µM. S. cerevisiae UUG-firefly luciferase reporter, luminescence/redox ratio. 0.13% of 350,000 active;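 active = replicate mean at a twofold rise or more, about +100% in these data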;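 also: firefly luciferase made from a UUG start codon reports start codon fidelity; reporter light over untreated wells divided by growth signal over untreated wells; some hits fall short of that in this replicate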
Rce1 inhib = blocks yeast Ras-converting enzyme. Q03530. yeast membranes, quenched prenylated peptide cleavage fluorescence. calls only. 0.27% of 290,000 active. AID 2563;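 active = fall in fluorescence gain of 50% or more versus controls, with final raw signal at or below 3038400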;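 also: plate controls were neutral control wells for no effect and wells lacking membranes for full effect; tested at 10 µM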
MT1-MMP act inh = blocks activation of human MT1-MMP. 0.061% of 360,000 active. P50281. GFP/RFP ratio change, % at 20 µM. AID 651647. HT1080 RFP-PRO-GFP cells, GFP/RFP ratio fluorescence, overnight; percent of plate control window, DMSO zero;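 active = GFP/RFP ratio change of at least 30% with cell ATP level not reduced by more than half and red fluorescence within 50% of control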; also: strong numbers were not always called active
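Test system: HT1080 cells expressing an RFP-PRO-GFP fluorescent reporter construct / Compound dosing: single-point 20 µM compound, 1% DMSO / Schedule: cells overnight before dosing, compound overnight, 37 °C, 5% CO2 / Evaluation: GFP/RFP fluorescence ratio / Control set: DMSO and RFP-L50D-GFP cell wells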
PABP polyA inh = blocks human PABP binding to poly(A) RNA; 1% of 290,000 active; fluorescence polarization; P11940; inhibition, % at 35 µM; AID 2014;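 active = 50% or more with normal probe brightness, or confirmed in later tests; about a fifth of its hits are not listed in these tables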;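 also: calls also rest on retests at 20 µM and on dose response follow-up; controls were probe without protein and protein plus probe with vehicle; some compounds called inactive have numbers as strong as hits; many hits fall short of the cut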
Target sequence (P11940 whole entry, looked up): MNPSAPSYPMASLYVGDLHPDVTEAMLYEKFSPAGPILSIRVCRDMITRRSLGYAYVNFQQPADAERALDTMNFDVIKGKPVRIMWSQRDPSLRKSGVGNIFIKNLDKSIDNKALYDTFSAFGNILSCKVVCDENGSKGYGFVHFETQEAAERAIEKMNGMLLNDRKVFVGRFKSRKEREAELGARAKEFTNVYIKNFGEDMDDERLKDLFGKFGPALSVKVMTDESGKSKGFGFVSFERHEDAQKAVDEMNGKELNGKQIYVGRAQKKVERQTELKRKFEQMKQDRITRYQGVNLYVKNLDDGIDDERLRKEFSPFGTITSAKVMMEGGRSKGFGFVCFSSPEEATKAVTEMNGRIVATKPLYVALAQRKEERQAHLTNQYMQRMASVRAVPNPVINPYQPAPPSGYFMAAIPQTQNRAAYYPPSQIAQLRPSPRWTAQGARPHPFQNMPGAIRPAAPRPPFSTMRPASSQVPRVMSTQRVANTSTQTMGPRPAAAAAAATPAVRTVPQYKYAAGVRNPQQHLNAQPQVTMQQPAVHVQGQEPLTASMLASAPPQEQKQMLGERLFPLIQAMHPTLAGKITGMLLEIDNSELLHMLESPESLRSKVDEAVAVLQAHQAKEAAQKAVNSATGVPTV
eIF4H FP inh = inhibitors of RNA binding by human eIF4H; eIF4H fluorescence polarization binding assay; inhibition, % at 35 µM; 0.94% of 290,000 active; AID 2012;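 active = 50% or more with normal probe brightness, or confirmed in later tests; about a fifth of its hits are not listed in these tables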;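 also: calls also rest on retests at 20 µM and on dose response follow-up; 0% = protein and probe with vehicle and 100% = probe without protein; strong numbers were not always called active; many hits fall short of the cut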
eIF4H FP inh retest = further read-out of eIF4H FP inh, marked with its call; inhibition, %; compound at 20 µM; confirmation average;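 mean of two retest wells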
PABP polyA inh retest = recorded beside PABP polyA inh, whose call it bears; inhibition, %; compound at 20 µM; confirmation repeats;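 mean of two retest wells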
MT1-MMP act inh RFP = second read-out of MT1-MMP act inh, no call of its own (marks repeat the call); RFP signal change, %; measured here: RFP expression control read;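 0 = vehicle wells; hits needed this value within 50% of zero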
Starred values were filed as active, the others as inactive; i = inactive; / = no result given.

SMILES	CSC inhib	Env fusion inh	Yeast UUG start	Rce1 inhib	MT1-MMP act inh	MT1-MMP act inh RFP	PABP polyA inh	eIF4H FP inh	others
Cc1ccc(N(CC(=O)NC(C)C)C(=O)CCC(=O)Nc2ccccn2)cc1	-17	15	-9	i	-2	-1	60	-5	eIF4H FP inh retest=-7;PABP polyA inh retest=11
Cc1ccc2nc(C)cc(C(=O)Nc3nccs3)c2c1	-4	-11	-13	i	1	2	3	8
O=C(CN1C(=O)NC(c2ccccc2)(c2ccccc2)C1=O)NCCNCCO	-7	3	-7	i	0	1	-2	3
N#Cc1ccc(CSc2ncccn2)cc1	0	-5	-15	i	0	-3	0	-10
N#Cc1ccc(-c2csc(NC(=O)c3ccc(N4C(=O)CCC4=O)cc3)n2)cc1	9	-2	-12	i	10	-1	-8	4
O=C(NCCCn1ccnc1)C(=O)c1cn(CC(=O)N2CCCCCC2)c2ccccc12	-12	12	/	i	-3	2	1	3
C=CCOc1c(CNc2ncn[nH]2)cccc1OC	-13	/	-11	i	-2	5	-12	-2
CC1CN(C(=S)NC(=O)c2ccco2)CC(C)O1 (centres undefined)	1	-4	/	i	1	4	-2	4
O=C(Nc1ccccc1OC(F)F)c1cc2c(s1)CCC2	6	-12	0	i	-2	2	5	84*	eIF4H FP inh retest=68*;PABP polyA inh retest=21
Cc1ccc(OCC(=O)N(Cc2ccco2)C2CCS(=O)(=O)C2)cc1C (centres undefined)	-6	/	3	i	1	0	-8	-5
O=C(c1cc(-c2ccc(O)cc2)on1)N1CCCC1	13	-29	-46	i	2	-1	0	-12
O=C(Cn1cnc2ccccc21)N1CCc2ccccc21	-1	12	-17	i	-3	-3	1	2
CCN(CC)CCCN1C(=O)C(O)=C(C(=O)c2ccc(C)o2)C1c1ccc(C)o1 (centres undefined)	-4	-5	-4	i	-1	5	120*	18	eIF4H FP inh retest=10;PABP polyA inh retest=81*
O=C(CCc1ccc(O)c(O)c1)N/N=C/c1cc2c(cc1[N+](=O)[O-])OCO2	4	-1	-21	i	-1	-4	61*	94*
O=C(c1cc(COc2ccc(F)cc2Cl)on1)N1CCc2sccc2C1	4	-21	-4	i	2	2	-2	1
Cc1cc(N2CCOCC2)n2ncc(-c3ccccc3)c2n1	-5	-24	-52	i	1	-4	6	4
C=C(C)CSc1nc(N)c(C#N)c(-c2ccc(C)cc2)c1C#N	-13	/	-10	i	13	-1	-1	-11
Oc1c(Cl)cc(Cl)cc1/C=N/Nc1ncc(Br)cn1	-2	8	-4	i	5	1	43	3
Cc1cccc(N2CCN(C(=O)n3ccnc3)CC2)c1C	-10	-91	-24	i	-1	1	2	1
C[C@@H]1CN(S(=O)C(C)(C)C)[C@@H](CCO)/C1=C\c1ccccc1 (some centres undefined)	/	-4	-11	/	-1	-1	/	/
CC(C)(CNC(=O)c1cc(Cl)c(O)c(Cl)c1)N1CCCCC1	/	-20	-2	i	-3	-2	10	5
CC(C)(C)NC(=O)CN(C(=O)c1ccc(CN2CCOCC2)o1)c1ccc2c(c1)OCCO2	15	-18	/	i	0	-1	-1	-9
COc1ccc(C(=O)NC2=Nc3ccccc3N=C(C)C2c2ccccc2)cc1 (centres undefined)	14	27	-28	i	7	3	-3	-5
COc1ccc(-n2nnnc2SCc2nc3ccccc3s2)cc1	/	/	-26	i	-4	1	11	11
CCOc1cc(/C=C/C(=O)c2ccc(O)cc2)ccc1OCC(=O)N(C)C	-7	18	3	i	-3	-12	-1	-2

Brought forward from above: 2 entries, followed by the next part.
SMILES	CSC inhib	Env fusion inh	Yeast UUG start	Rce1 inhib	MT1-MMP act inh	MT1-MMP act inh RFP	PABP polyA inh	eIF4H FP inh	others
COc1ccc(-n2nnnc2SCc2nc3ccccc3s2)cc1	/	/	-26	i	-4	1	11	11
CCOc1cc(/C=C/C(=O)c2ccc(O)cc2)ccc1OCC(=O)N(C)C	-7	18	3	i	-3	-12	-1	-2
COc1ccc(OC)c(NC(=O)CCN2CCN(c3ccccc3)CC2)c1	-16	/	-4	i	-1	-2	1	-6
O=C1CC(c2ccccc2)Sc2nc(-c3ccccc3)c(-c3ccccc3)n21 (centres undefined)	2	5	-24	i	13	-7	1	-3
O=C(Cn1c(=O)sc2ccccc21)N1CCOCC1	-4	/	-22	i	0	-1	-7	-6
CC(OC(=O)CCc1nc2ccccc2[nH]c1=O)C(=O)c1ccccc1 (centres undefined)	-4	-20	-16	i	-6	0	-4	-11
CCOc1ccc(NC(=O)NNC(=O)COc2ccc3ccccc3c2)cc1	2	/	-4	i	1	1	3	0
CC(NS(=O)(=O)/C=C/c1ccccc1)c1ccccc1 (centres undefined)	3	0	8	i	-1	4	-5	-6
CCCC(=O)Nc1sc2c(c1C#N)CCCC2	7	/	-3	i	7	1	3	4
O=c1c2cc(-c3ccccc3)sc2ncn1-n1cccc1	-2	-251	-20	i	-9	-1	-1	-13
COc1ccc(OC)c(S(=O)(=O)NC(=O)C2(C)CCN2C(=O)c2ccco2)c1 (centres undefined)	/	2	-10	/	2	8	/	/
Cc1cccc(NC(=O)c2ccc(S(=O)(=O)N3CCN(C)CC3)cc2)c1C	-11	-5	-13	i	1	2	-1	-3
CCOC(=O)CC(=O)CSc1nc2c(sc(=S)n2-c2ccc(OCC)cc2)c(=O)[nH]1	15	/	-6	i	0	-1	6	-3
Cc1c(CCO)c(=O)n(C)n1C(=O)c1ccc(F)cc1	-5	11	-8	i	7	6	-8	-8
Cc1cccc(OCC(=O)Nc2nc(-c3ccncc3)cs2)c1	1	12	-1	/	6	-3	/	/
Cc1ccc(S(=O)(=O)N(Cc2ccccc2)c2ccccc2C(=O)NCc2ccco2)cc1	/	/	/	i	-8	-10	-1	1
CCCCCC1CC(CC(=O)NC(=S)Nc2ccc([N+](=O)[O-])cc2)C(=O)O1 (centres undefined)	13	/	-13	i	3	-5	-2	9
Cc1snc(S(=O)(=O)/C(C#N)=N\Nc2ccccc2)c1C#N	-12	/	-22	i	2	0	8	-6
CC(C)n1c(CNC(=O)c2ccccc2)nc2ccccc21	-7	-43	-14	i	-1	2	-7	-2
NC(=O)C1CCN(c2cc(Cl)ccc2[N+](=O)[O-])CC1	-1	-9	/	i	1	9	1	-4
COc1ccc(Cn2c(CCC(=O)Nc3ccc(C)c(C)c3)nc3cccnc32)cc1	6	-57	-10	/	-7	-5	2	5
CC1=NN(c2ccccc2)C(=O)/C1=C/c1cc(C)n(C2CC2)c1C	-1	-36	/	i	0	6	-7	-15
COC(=O)c1c(NC(=O)COC(=O)CCS(=O)(=O)c2ccc(C)cc2)sc(C)c1C	-4	/	-14	i	0	2	-7	-3
C=CCNC(=O)COC(=O)CNC(=O)c1cc(Cl)cc([N+](=O)[O-])c1	-5	-11	/	i	2	1	-1	0
COc1ccc(Cc2noc(CN3CCCN(C4Cc5ccccc5C4)CC3)n2)cc1OC	17	11	-2	i	-3	4	0	-5
Cc1ccc(NC(=O)CN2C(=O)NC(C)(C3CC3)C2=O)c([N+](=O)[O-])c1 (centres undefined)	12	/	5	/	-1	0	/	/
O=C(CCl)N1N=C(c2cccs2)CC1c1ccco1 (centres undefined)	56	27	/	i	-8	-4	-12	3

Random excerpt: 5 compounds from above, in no set order.
SMILES	CSC inhib	Env fusion inh	Yeast UUG start	Rce1 inhib	MT1-MMP act inh	MT1-MMP act inh RFP	PABP polyA inh	eIF4H FP inh	others
CCOc1ccc(NC(=O)NNC(=O)COc2ccc3ccccc3c2)cc1	2	/	-4	i	1	1	3	0
Cc1cccc(OCC(=O)Nc2nc(-c3ccncc3)cs2)c1	1	12	-1	/	6	-3	/	/
COc1ccc(Cn2c(CCC(=O)Nc3ccc(C)c(C)c3)nc3cccnc32)cc1	6	-57	-10	/	-7	-5	2	5
O=c1c2cc(-c3ccccc3)sc2ncn1-n1cccc1	-2	-251	-20	i	-9	-1	-1	-13
CCCCCC1CC(CC(=O)NC(=S)Nc2ccc([N+](=O)[O-])cc2)C(=O)O1 (centres undefined)	13	/	-13	i	3	-5	-2	9

Returning to the listing with the 2 entries that preceded the break.
SMILES	CSC inhib	Env fusion inh	Yeast UUG start	Rce1 inhib	MT1-MMP act inh	MT1-MMP act inh RFP	PABP polyA inh	eIF4H FP inh	others
Cc1ccc(NC(=O)CN2C(=O)NC(C)(C3CC3)C2=O)c([N+](=O)[O-])c1 (centres undefined)	12	/	5	/	-1	0	/	/
O=C(CCl)N1N=C(c2cccs2)CC1c1ccco1 (centres undefined)	56	27	/	i	-8	-4	-12	3
CCOc1ccc(S(=O)(=O)n2cc(-c3ccccc3)c(N)n2)cc1	-14	/	-12	i	1	-11	11	2
O=C(Nc1ccccc1)C1CCN(C(=O)c2ccc([N+](=O)[O-])cc2)CC1	-13	3	/	i	3	4	12	10
CN(C)S(=O)(=O)c1ccc(NC(=O)COC(=O)C2CC3CCCC(C2)C3=O)cc1 (centres undefined)	-15	3	/	i	-1	4	-1	4
CCOC(=O)C(=O)Nc1ccc(OCc2ccccc2)cc1	/	-22	-11	i	2	9	-1	-11
O=C(CSc1nncs1)N1CCN(S(=O)(=O)c2ccccc2)CC1	-2	9	-12	i	0	-1	-11	3
CCSc1cc(C)nc2c(-c3ccc(Cl)cc3)c(C)nn12	-4	/	-11	i	8	2	-15	4
Cc1ccc2c(c1)c1c(n2CC(O)CNC(C)(C)C)CCCC1 (centres undefined)	/	-43	-11	/	-6	-1	13	7
Cc1ccc(S(=O)(=O)Nc2cccc(CP(=O)(c3ccccc3)c3ccccc3)c2)cc1	-11	-16	/	i	-7	-4	11	-2
COc1ccc(F)cc1S(=O)(=O)Nc1cc2c3c(c1)CC(=O)N3CCC2	-13	-5	-22	i	10	2	/	/
CCCc1cc(=O)[nH]c(SCC(=O)Nc2ccc(OC(F)F)cc2)n1	/	/	2	i	-1	-7	8	-2
O=S(=O)(c1ccc2ncn(O)c2c1)N1CCOCC1	-16	-2	-26	i	2	5	4	-4
NC(=O)C1CCN(C(=O)CCSc2ccccc2)CC1	-11	/	-15	i	-1	4	1	-4
CCN(CC)c1ccc(NC(=O)c2cccc(C)c2OC)c(C)c1	-3	-73	-13	i	3	-3	-13	-5
O=C(OCCNc1nc(-c2ccccc2)nc2ccccc12)c1cccnc1	5	3	/	i	-1	-2	4	-7
O=C(NCCSc1ccccc1)c1ccccc1	-5	/	-24	i	7	6	-6	5
Cc1[nH]c2ccccc2c1C(C#N)(C#N)C1C(=O)c2ccccc2C1=O	34	-48	1	i	-1	1	6	-1
CN(C)S(=O)(=O)c1cccc(NC(=O)c2cc(=O)[nH]c(=O)[nH]2)c1	-15	4	-14	i	-1	6	-4	-14
COc1ccccc1OCC(=O)NC1CCCCCC1	3	/	-5	i	-3	-5	-6	-11
